Screening data from PubChem BioAssay.
CtBP-E1A blk – inhibitors of CtBP/E1A interaction | activity change, % (concentration not given with the values) | AlphaScreen GST-E1A/His-CtBP binding, 1536-well; active compounds read low; control for the full effect not named in the record | actives 0.49% (n = 340,000); in the data active means activity change below about -65%; inconclusive means about -30% to -65%; inactive means above about -30%; further: on the % scale 0 is the no-effect control and ±100 the full control effect
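Homogeneous bead-based format: GST-tagged E1A captured on glutathione donor beads, His-tagged CtBP on nickel acceptor beads; compounds precede bead addition by 2 h at 37 °C.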
D2 ag – human D2 receptor agonism in beta-arrestin assay | P14416 | DiscoveRx PathHunter D2 beta-arrestin, luminescence, 90 min; 100% = 57 uM dopamine signal | actives 0.084% (n = 360,000) | AID 624465 | activation, % (concentration not given with the values); in the data active = activation above about 40%; inconclusive = about 15% to 40%; inactive = below about 15%; further: compound concentration not given in the record; the text of the record calls up to 30% inactive
Target sequence (P14416 whole entry, looked up): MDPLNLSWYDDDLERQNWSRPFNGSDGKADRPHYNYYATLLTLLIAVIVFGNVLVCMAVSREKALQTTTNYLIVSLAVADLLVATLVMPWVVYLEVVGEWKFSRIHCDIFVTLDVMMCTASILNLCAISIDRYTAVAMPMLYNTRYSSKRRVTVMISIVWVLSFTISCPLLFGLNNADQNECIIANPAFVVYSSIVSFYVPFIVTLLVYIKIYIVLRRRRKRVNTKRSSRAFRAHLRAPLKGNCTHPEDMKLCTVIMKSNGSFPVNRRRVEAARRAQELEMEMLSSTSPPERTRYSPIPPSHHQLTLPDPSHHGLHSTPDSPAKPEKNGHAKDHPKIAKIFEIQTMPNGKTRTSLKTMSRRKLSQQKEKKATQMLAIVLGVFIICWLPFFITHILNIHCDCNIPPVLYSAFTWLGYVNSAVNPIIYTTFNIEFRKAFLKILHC
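Agonist mode: compounds alone added to overnight-plated D2 PathHunter cells for 90 min at 37 C, with 57 uM final dopamine (EC100) defining full response. Beta-arrestin recruitment detected by chemiluminescent reagent, read after 1 h at ambient temperature.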
Six1-Eya2 inh – Six1/Eya2 interaction inhibition; Q15475+O00167; AlphaScreen GST-Six1/His-Eya2 binding, biochemical; active compounds read low; control for the full effect not named in the record; activity change, % (test concentration not listed); actives 0.56% (n = 360,000); in the data active = activity change below about -65%; inconclusive = about -30% to -65%; inactive = above about -30%; further: on the % scale 0 is the no-effect control and ±100 the full control effect
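Six1/Eya2 binding was read as AlphaScreen signal after compounds were pinned into GST-Six1 plus His-tagged Eya2 (5X stock 250/500 nM) in pH 8.0 Tris/NaCl/TCEP buffer, beads added, then incubated 1 h, 37 C, dark.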
gsp ag – activates gsp, the McCune-Albright syndrome mutation | AID 624287 | actives 0.13% (n = 340,000) | Potency, µM (series often up to 76.9 µM), for inactives: at the top dose activation (cAMP increase), hits mostly activators | gsp mutant cells, cAMP HTRF, 30 min; control for the full effect not named in the record; active = well fitted activation curve with a large enough effect; inconclusive = small, poorly fitted or top-dose-only effect, or another doubt; inactive = no such curve, though single readings can be large or run the other way; cell line not stated here;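 further: phosphodiesterase inhibitor Ro 20-1724 added with compounds to block cAMP breakdown; potency means the concentration at half of the fitted maximal effect; nearly all actives have a fitted effect of over 60% in size; about a fifth of the inactives were tested at one dose only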
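Cells in DMEM/10% FBS with G418 were pretreated with compounds in DMSO plus […] (300 uM stock) for 30 min at 37C. cAMP was measured by HTRF (cAMP-d2 plus anti-cAMP antibody-K) after 30 min at room temperature.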
D2 PAM – positive allosteric modulators of human D2 dopamine receptor; P14416; DiscoveRx D2 beta-arrestin cells, luminescence, 90 min; 100% = 57 uM dopamine signal; potentiation, % (test concentration not listed); actives 0.23% (n = 360,000); AID 624464; active = potentiation of 50% or more; inconclusive = 30% to 50%; inactive = 30% or less;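 further: compound concentration not given in the record; tested on top of an EC20 dose of dopamine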
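PathHunter beta-arrestin assay in DiscoveRx D2 cells. Compounds were added with an EC20 of dopamine (50 nM final) for 90 min at 37 deg C. Luminescence was read 1 h after detection reagent, with 57 uM dopamine as the EC100 control.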
gsp antagonist – antagonizes gsp, the McCune-Albright syndrome mutation; gsp-mutant cells, cAMP HTRF, 30 min; control for the full effect not named in the record; Potency, µM (doses to about 76.9 µM), for the others: top-dose activity change, negative = inhibition, actives largely listed as inhibitors; actives 0.4% (n = 340,000); AID 624288; active = falling curve of any shape with a large fitted effect; inconclusive = falling curve, mostly with a smaller effect; inactive = flat or rising curve; cell line not stated here;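 further: intracellular cAMP measured with PDE inhibitor Ro 20-1724 present during compound exposure; potency means the concentration at half of the fitted maximal effect; on the % scale 0 is the no-effect control and ±100 the full control effect; nearly all actives have a fitted effect of over 65% in size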
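Cells, 2000/well, grown 16–24 h in DMEM 10% FBS with 0.5 mg/ml G418, then compounds plus […] (300 uM addition stock), 30 min at 37C. cAMP read by HTRF (cAMP-d2 and anti-cAMP antibody-K in lysis buffer) after 30 min RT.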
* marks the source's active call; other numbers are inactive results; ? = inconclusive; . = not tested or not shown; & = joins results of further samples; [ ] = dose if it differs, or a comment.

SMILES	CtBP-E1A blk	D2 ag	Six1-Eya2 inh	gsp ag	D2 PAM	gsp antagonist
CCCCn1nnnc1C(c1cccc(OC)c1OC)N1CCN(C/C=C/c2ccccc2)CC1 (stereo not drawn)	-15	-6.1	-21	.	-11	.
Cn1c(CNC(=O)c2ccco2)nnc1SCCOc1ccccc1	22	-4.4	6	4%[15.4 µM]	1	-2%
O=C(CN1C(=O)C2C3C=CC(C3)C2C1=O)Nc1nncs1 (stereo not drawn)	2	0.3	1	3%	-5	13%
O=C(CCSCCc1ccccn1)Nc1ccc(Cl)cn1	2	1.9	-1	0%	-5	-9%
Cc1ccc2nc(-c3ccccc3)c(-c3ccccc3)nc2c1	8	-18	24	2%	-9	-8%
Cc1cccc2c3c([nH]c12)CCNC3	3	-5.1	4	-4%[15.4 µM]	-18	8%
CCOC(=O)N1CCC(NC(=O)c2cc(C(=O)NC3CCCC3)ccc2CO)CC1	0	-3.7	-2	-38%[inhibitor]	-4	12%
COc1ccc(C(=O)N(C)C2CCN(C)CC2)cc1S(=O)(=O)Nc1cc(Cl)ccc1Cl	.	-5.1	-2	-1%	-12	-7%
COc1ccc(CNC(=O)Nc2cc(C)ccc2C)cc1	.	-4.7	-2	-75%[inhibitor]	-8	6%
COCCCn1ccc(O)c(Cc2ccc(F)cc2)c1=O	15	-1.0	3	-18%	10	4%
CC(c1ccccc1)C(CC(=O)O)C(=O)NC1CCCCC1 (stereo not drawn)	5	-1.8	1	-49%[inhibitor]	-5	5%
CCN1/C(=C/C=C/c2sc3ccccc3[n+]2CC)Sc2ccccc21	?	-6.8	?	.	-23	?

Full records, looked up by structure. Screens in order: CtBP-E1A blk | D2 ag | Six1-Eya2 inh | gsp ag | D2 PAM | gsp antagonist
`CC(c1ccccc1)C(CC(=O)O)C(=O)NC1CCCCC1` (stereo not drawn) across the screens: 5 | -1.8 | 1 | -49%[inhibitor] | -5 | 5%
`Cn1c(CNC(=O)c2ccco2)nnc1SCCOc1ccccc1` across the screens: 22 | -4.4 | 6 | 4%[15.4 µM] | 1 | -2%
`CCCCn1nnnc1C(c1cccc(OC)c1OC)N1CCN(C/C=C/c2ccccc2)CC1` (stereo not drawn) across the screens: -15 | -6.1 | -21 | . | -11 | .

(further entries)
SMILES	CtBP-E1A blk	D2 ag	Six1-Eya2 inh	gsp ag	D2 PAM	gsp antagonist
CCOC(=O)CCCc1ccc(/C(C)=N/NC(=S)NC)cc1	.	4.1	0	0%	7	-14%
COc1ccc(OC)c(NC(=O)Nc2nc(CN(C)C)cs2)c1	-2	-4.8	-2	.	-19	.
Cc1nn(CC(=O)N2CCOCC2)c(=O)c2nn(-c3ccccc3)c(C)c12	2	0.8	3	?	4	8%
Cc1ccc(Cl)cc1N1CCN(S(=O)(=O)c2c(C)noc2C)CC1	14	-2.2	7	-2%	1	?
COC(=O)CSC1=C(C#N)C(c2ccccc2)CC(=O)N1 (stereo not drawn)	7	0.0	1	-1%	-14	2%
COc1ccc(S(=O)(=O)CCC(=O)N(C)c2ccc(OC)cc2OC)cc1	37	-4.5	11	-25%	-12	12%
O=C(Nc1cccc(F)c1)C1CCN(C(=O)c2ccc(Cl)cc2)CC1	10	0.2	2	-1%[15.4 µM]	-13	13%
CCn1c(NCc2c[nH]c3ccccc23)nc2ccccc21	-14	6.3	2	17%	-16	-1%
Cc1noc(C)c1S(=O)(=O)N1CCN(S(=O)(=O)c2ccccc2C#N)CC1	3	1.2	2	-27%	1	4%
COc1ccc(C/C(C)=N\NC(=O)c2cn(C)c3ccccc23)cc1OC	.	-2.8	2	?	-20	1%
O=C(Nc1cccc([N+](=O)[O-])c1)N(c1ccccc1)c1ccccc1	-16	-1.1	-3	2%	-14	-13%
CC(C)(C)c1ccc(C(=O)Nc2ccc(C(=O)N3CCOCC3)cc2)cc1	5	-3.9	0	-16%	0	5%
CCc1ccccc1N=C1SCC(=O)N1C	5	-0.7	3	18%	2	14%
Cc1ccc(C(=O)Nc2cccc(Oc3ccccc3)c2)o1	0	-2.7	9	25%	-5	-9%
COC(=O)Nc1ccc(S(=O)(=O)N2CCN(c3ccc(F)cc3)CC2)cc1	-5	2.3	-8	0%	-3	-7%
Cc1c(NC(=O)c2ccc(S(=O)(=O)N(C)c3ccccc3)cc2)c(=O)n(-c2ccccc2)n1C	-3	-1.2	3	-3%	-2	3%
Cc1ccc(-n2nc3c(c2NC(=O)CCC2CCCCC2)CS(=O)C3)cc1 (stereo not drawn)	22	-2.3	-11	1%	-3	1%
O=c1[nH]cnc2c1ncn2C1OCC(O)C(O)C1O (stereo not drawn)	5	2.9	32	.	-22	6%
CCC1CCCCN1C(=O)Nc1cccc(NC(=O)N2CCCCC2CC)c1 (stereo not drawn)	-2	-4.4	-3	16%	-3	-4%
C[C@@H]1CN([C@H](C)CO)C(=O)CCCn2cc(nn2)CO[C@H]1CN(C)C(=O)Nc1ccccc1	2	-2.5	1	?	3	.
CCN(CC)CCNc1nc(-c2ccccc2)nnc1C(F)(F)F	1	-2.0	-3	-36%[inhibitor]	-14	5%
CN(C)C1(CNC(=S)Nc2ccccc2C(F)(F)F)CCCCC1	-1	-6.6	0	0%[15.4 µM]	-11	16%
Clc1ccc2nc(SCc3nnc(-c4ccccc4)o3)[nH]c2c1	-17	-1.5	-2	6%	26	-11%
C=CCn1c(=O)n(C(=O)OCC)c2cc(Br)ccc21	-8	0.9	-6	0%[15.4 µM]	-6	10%
F[B-](F)(F)c1cnc2ccccc2c1	3	0.2	5	.	.	12%
O=C(NC1CC1)c1ccc2sc([C@H]3C[C@H](O)[C@@H](CO)O3)nc2c1	-3	-3.0	-1	.	-1	.
CC(C)CCNC(=O)c1ccc2c(c1)N(Cc1ccccc1)C(=O)CS2=O (stereo not drawn)	-1	-5.4	3	-83%[inhibitor]	-1	-7%
N#Cc1cnn(-c2ccccc2)c1NC(=O)c1ccccc1F	0	7.4	6	-6%	-2	0%
O=C(CSc1nnc(-c2ccccc2)c(-c2ccccc2)n1)NCC1CCCO1 (stereo not drawn)	-3	-0.9	-9	2%	-4	0%
CC(C)COP(=O)(OCC(C)C)C(O)c1ccc2c(c1)OCO2 (stereo not drawn)	.	-6.3	-5	4%	-5	2%
O=C(Oc1ccc2ccc(O)cc2c1)c1ccccc1Cl	2	-0.9	-6	-1%[15.4 µM]	8	8%
CC[C@@H](C)[C@@H]1CN([C@@H](C)CN2CCC[C@H]2CN2C(N)=NC[C@@H]2Cc2ccccc2)C(=N)N1CCc1ccc(Cl)c(Cl)c1	-15	-5.6	-7	.	-29	-2%
O=C(N/C(=C\c1cccnc1)C(=O)N1CCOCC1)c1ccco1	-2	-2.4	-29	1%[15.4 µM]	-4	-10%
O=C(O)/C(=C\c1cccc(F)c1)c1ccc(S(=O)(=O)N2CCCC2)s1	20	0.1	-2	?	-7	-1%
CC1(C)N=C(N)N=C(N)N1c1cc(Cl)ccc1Cl	-1	-3.4	8	-5%	-13	.
COc1ccc(C(C)=O)cc1Cn1c(C)c(C(=O)NCc2ccc3c(c2)OCO3)sc1=O	-13	6.4	-10	.	-3	.
COc1ccc(N(C(=O)c2ccc(Br)o2)C2C=CS(=O)(=O)C2)c(OC)c1 (stereo not drawn)	.	9.7	6	-16%	1	7%
Cc1nn(-c2ccccc2)c(Cl)c1/C=C1\SC(=S)NC1=O	5	-3.0	-6	-26%	-5	?
Cc1cc(C)c[n+](-c2[nH]c(=O)sc2/C=N/NC([S-])=Nc2ccccc2)c1	-3	6.6	-26	7%[15.4 µM]	23	4%
CSc1ccccc1C(=O)C1CCCN(C(=O)c2cc(C(C)C)no2)C1 (stereo not drawn)	10	3.0	-1	15%	-2	-16%
COc1ccccc1-c1noc2ncnc(Nc3cccc(C)c3C)c12	7	-2.0	4	?	-1	-17%
Cc1[nH]c2ccccc2c(=O)c1CN1CCCCC1	-4	-4.2	-1	-27%	-9	7%
O=C(O)Cc1sc(Nc2ccccc2)nc1-c1ccc(Cl)cc1	4	-4.9	13	20%[15.4 µM]	-13	?
CCCCNC(=S)N(C)/N=C/c1ccc(OCc2ccc(C(=O)OC)cc2)c(OC)c1	-1	-6.6	5	-20%	0	-15%
N#CC(c1ccc(Cl)nn1)c1ccccc1Cl (stereo not drawn)	0	0.4	4	8%	-11	3%
CCCCn1c(N)c(N(CCC(C)C)C(=O)CSc2nnc(Nc3ccccc3)s2)c(=O)[nH]c1=O	-7	-4.0	-10	2%[15.4 µM]	-27	-2%
Cc1c(C(=O)N(C)Cc2nc3ccccc3c(=O)[nH]2)oc2ccccc12	-4	-1.9	-19	-2%[15.4 µM]	-2	8%
C=C(C)Cn1c2ccc(NC(=O)NCCc3cccs3)cc2c(=O)n1C	3	14	-1	.	6	.
Cc1csc(CNC(=O)C2CCC(=O)N(CCCc3ccccc3)C2)n1 (stereo not drawn)	-6	2.2	7	-64%[inhibitor]	-5	7%
COc1ccc(NC2=CC(=S)NC(C)(C)C2)cc1	.	-2.3	-2	-9%	-31	1%
CC1=C(C(=O)OCc2ccccc2)C(c2ccccn2)c2c(n(C)c(=O)n(C)c2=O)N1 (stereo not drawn)	-2&11	-5.4&-3.6	-1&7	-1%&-4%	-3&19	7%&-7%
CC(=O)c1cccc(NC(=O)N2CCCC2C(=O)Nc2ccc3c(c2)OCCO3)c1 (stereo not drawn)	-17	-4.3	5	-15%	-5	13%
CC1CCCCN1C(=O)CCNS(=O)(=O)c1ccc2c(c1)c(=O)n(C)c(=O)n2C (stereo not drawn)	-8	1.5	-5	32%	2	5%
CCc1ccnc(NC(=O)NS(=O)(=O)c2ccc(C)cc2)c1	5	-2.5	10	-18%[15.4 µM]	-9	14%
Cc1nc2c(-c3ccccc3)c(C)nn2c(N)c1-c1ccccc1	-1	-0.5	-4	?	-25	-7%
CCOC(=O)C1=CN(CC)S(=O)(=O)NC1c1ccc(F)c(Cl)c1 (stereo not drawn)	0	-0.9	3	.	.	4%
COc1ccc(CCNC(=O)Nc2nc(C(N)CCc3ccccc3)cs2)cc1OC (stereo not drawn)	?	9.1	-18	.	-7	.
Cc1cc(C)c2oc(C(=O)N(Cc3ccc(F)cc3)C3CCS(=O)(=O)C3)cc(=O)c2c1 (stereo not drawn)	1	0.2	-2	8%	3	0%
CC(C)Oc1cccc(C(=O)C2CCCN(C(=O)CCc3cnn(C)c3)C2)c1 (stereo not drawn)	12	-2.7	-1	?	6	-5%
O=C(CCc1ccccc1)NCC1OCCc2ccccc21 (stereo not drawn)	6	0.0	7	14%	-2	1%
Cc1ccc(S(=O)(=O)N(C)[C@H]2C[C@H]3c4[nH]c5ccccc5c4CCN3C[C@H]2[C@H](C)O)cc1	-17	0.6	-15	.	-10	.
CC(=O)Nc1nc2ccccc2n1CCOc1ccccc1	3	-3.3	3	-20%	-11	22%
CC1(c2ccc(Cl)cc2)NC(=O)N(CC(=O)N2CCc3ccccc3C2)C1=O (stereo not drawn)	-18	-11	-2	4%	-4	-10%
